Assay outcomes from PubChem BioAssay.
UCH37 DUB inh = inhibitors of human UCH37 deubiquitinase, primary screen, biochemical, Ub-AMC cleavage, fluorescence. Ubiquitin carboxyl-terminal hydrolase isozyme L5 (Homo sapiens), Q9Y5K5. purified proteasome/UCH37. inhibition, % (no concentration beside the values). 330,000 compounds, 0.33% hits. AID 588478, 2011;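 active = mean of two replicates above 20%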;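 also: 0% = compound-free wells with enzyme and 100% = wells lacking proteasome; stock transfer was 100 nL into about 20 µL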
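Test system – human UCH37 enzyme supplied as purified proteasome complex · Incubation – 30 min preincubation with enzyme, 25 min cleavage at room temperature · Detection – AMC fluorescence from Ub-AMC cleavage, excitation 355 nm, emission 460 nm · Benchmarks – no-proteasome wells (full inhibition) and compound-free wells (no inhibition)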
Bfl-1 A1 inh = caspase 3/7 activation in MEF A1-2A-BIM cells, primary screen, A1 inhibitor project, cell-based, luminescence, HTS | caspase activation, % (concentration not given with the values) | 330,000 compounds, 0.066% hits | Caspase-Glo 3/7 luminescence, 3 h; percent of clofoctol response, vehicle zero;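 active = over half of replicate activation scores above 10%, or exactly half above 10 with the replicate mean above 10; inconclusive = replicate mean below 10 yet half the replicates above 10; inactive = over half of replicates below 10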;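 also: wells of about 30 µL received 50 nL stock; many hits fall short of the cut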
HNF4A DNA FP = change in binding of human HNF4A to DNA, primary screen, biochemical, fluorescence polarization, FITC-DNA | activity change, % at 10 µM | Hepatocyte nuclear factor 4-alpha (Homo sapiens), P41235 | 360,000 compounds, 0.3% hits | 1 h; in the data active = activity change above about 30%, passing the limit was not always enough;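 also: controls were the assay level and a saturating level of protein; the project sought stronger binding though the title names inhibitors; some compounds called inactive have numbers as strong as hits; positive values seem to mean higher polarization but the record does not say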
Beta2AR agonist = beta2AR agonists driving receptor internalization, primary screen, cell-based, FAP fluorogen, flow cytometry; Beta-2 adrenergic receptor (Homo sapiens), P07550; Am2.2-beta2AR cells; reference of the scale not given here; response, % (no concentration beside the values); 340,000 compounds, 0.43% hits;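 active = response above a set limit, near 3 SD of response in nonfluorescent compounds, cut at about 42% in these data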;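 also: stock transfer was 100 nL into about 11 µL; a reference agonist was the positive control; negative values mostly stem from fluorescent compounds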
LANA-H2B inh = blockers of LANA interaction with H2A/H2B – biochemical, FP readout, HTS, primary screen; AID 2629, 2010; inhibition, % (test concentration not listed); cell-free LANA-H2A/H2B peptide, fluorescence polarization; 320,000 compounds, 0.6% hits; in the data active = inhibition mostly above about 10%, no sharp cut-off; inactive = mostly below about 6.7%;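 also: stock transfer was 7.5 nL into about 10 µL; 0% = median of vehicle wells and 100% = median of positive control wells; one replicate is shown; the record names a cut of 25% in any replicate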
Target sequence (Q9QR71 whole entry, looked up): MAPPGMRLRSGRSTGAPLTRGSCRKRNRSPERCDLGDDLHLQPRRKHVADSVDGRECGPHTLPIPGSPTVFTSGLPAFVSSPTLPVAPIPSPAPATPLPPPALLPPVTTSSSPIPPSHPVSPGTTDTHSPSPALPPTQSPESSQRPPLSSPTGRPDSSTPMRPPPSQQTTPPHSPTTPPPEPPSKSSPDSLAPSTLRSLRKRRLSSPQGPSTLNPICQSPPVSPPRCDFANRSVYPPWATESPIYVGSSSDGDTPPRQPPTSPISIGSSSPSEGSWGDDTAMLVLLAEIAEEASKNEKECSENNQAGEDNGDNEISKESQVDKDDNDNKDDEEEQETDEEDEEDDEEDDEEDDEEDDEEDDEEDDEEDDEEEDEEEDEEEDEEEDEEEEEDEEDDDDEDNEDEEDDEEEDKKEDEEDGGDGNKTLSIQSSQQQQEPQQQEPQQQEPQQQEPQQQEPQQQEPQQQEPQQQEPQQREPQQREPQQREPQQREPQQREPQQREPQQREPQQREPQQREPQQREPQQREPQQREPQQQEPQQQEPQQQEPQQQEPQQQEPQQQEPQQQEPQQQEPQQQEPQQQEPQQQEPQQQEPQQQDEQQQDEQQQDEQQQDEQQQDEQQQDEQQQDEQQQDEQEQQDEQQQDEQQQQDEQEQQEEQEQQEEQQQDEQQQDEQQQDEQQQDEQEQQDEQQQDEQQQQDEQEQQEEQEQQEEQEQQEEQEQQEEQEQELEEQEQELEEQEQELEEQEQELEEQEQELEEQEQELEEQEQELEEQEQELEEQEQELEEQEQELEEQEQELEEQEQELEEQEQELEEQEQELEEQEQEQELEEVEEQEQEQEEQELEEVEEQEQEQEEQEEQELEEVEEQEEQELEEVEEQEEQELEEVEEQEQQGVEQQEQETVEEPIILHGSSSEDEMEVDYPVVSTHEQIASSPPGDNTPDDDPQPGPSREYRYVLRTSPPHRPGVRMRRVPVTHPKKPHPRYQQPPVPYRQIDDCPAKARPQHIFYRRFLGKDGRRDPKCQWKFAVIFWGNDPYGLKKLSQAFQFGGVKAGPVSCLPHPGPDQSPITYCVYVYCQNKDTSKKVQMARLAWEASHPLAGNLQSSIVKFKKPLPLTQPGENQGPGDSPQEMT
Vif TR-FRET = inhibitors of Vif binding to APOBEC3G peptide, primary screen, biochemical, TR-FRET, GST-Vif 1-94, biotin-A3G peptide, dose response retest (AID 1117319) | Virion infectivity factor (Human immunodeficiency virus type 1 group M subtype B (isolate … | TR-FRET GST-Vif / biotin-A3G peptide binding; higher % means a stronger effect; test concentration not given here; strong numbers were not always called active | one-dose inhibition, %; IC50 in µM for titrated hits | 260,000 compounds, 0.57% hits;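 active = above the screen mean plus three standard deviations and confirmed in dose response; inconclusive = results disagree or hit not tested in dose response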;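 also: Vif residues 1-94 fused to GST binding biotinylated APOBEC3G peptide 110-148; 0% = full assay without inhibitor and 100% = GST in place of GST-Vif; retest series ran down from 100 µM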
E coli growth = E. coli growth inhibition, primary screen, OD600; 330,000 compounds, 0.21% hits; AID 1053175, 2014; OD600 absorbance (concentration not given with the values); Escherichia coli growth, 23 h; active compounds read low;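 active = OD600 absorbance below the run mean of sample wells minus 3.6 SD, in any replicate, cut at about 0.56 in these data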;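 also: stock transfer was 300 nL into about 60 µL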
* = called active by the depositor; ? = inconclusive; . = no result given; + = active, no number.

SMILES	UCH37 DUB inh	Bfl-1 A1 inh	HNF4A DNA FP	Beta2AR agonist	LANA-H2B inh	Vif TR-FRET	E coli growth
O=C(Nc1ccccc1O)C(c1ccccc1)c1ccccc1	5.4	0.2	4.5	-6.1	-1.6	.	0.679
O=C(Nc1cc([N+](=O)[O-])ccc1Cl)c1ccc2c(c1)OCO2	4.1	0.0	-0.1	16.1	3.4	-7.1%	0.765
COc1ccc2nc(NC(=O)CSC(C)C(=O)Nc3cc(C)on3)sc2c1 (stereo unspecified)	3.0	-0.3	-0.8	0.5	16.8*	.	0.625
Cc1cccc(NC(=S)NC(=O)/C=C/c2ccccc2)n1	2.8	0.3	3.9	-1.2	2.2	.	.
Cc1ccc(CSCC(=O)Nc2ccccc2C(=O)O)cc1	0.4	-2.4	-0.3	3.7	3.1	.	0.648
O=S(=O)(NC1CCCC1)c1ccccc1Cl	4.3	0.1	2.7	-0.2	0.1	?	0.681
O=C(Nc1cccc(NC(=O)c2ccco2)c1)c1ccccc1	-0.1	1.1	-1.6	-19.1	-4.5	.	0.68
CC(C)(C)C(=O)N1CCN(c2nc3ccc(Br)cc3s2)CC1	1.9	0.1	3.7	1.6	-1.5	.	0.704
COc1ccc(/C=N/N2C(C)CCCC2C)cc1OC (stereo unspecified)	.	0.3	3.5	-1.8	-0.9	-0.9%	.
C[C@]12C(=O)N(c3ccccc3)C(=O)N1[C@H]1c3ccccc3OC[C@@H]1[C@H]2c1ccccc1	-0.2	-1.6	1.9	-4.0	2.8	.	.
CC(C)N(Cc1cc2ccccc2[nH]c1=O)C(=O)c1cccnc1	-3.6	0.0	-1.1	3.3	-2.8	1.4%	0.7
CN(C)c1ccc(/C=C2\SC(N3CCCCC3)=NC2=O)cc1	13.4	-4.8	118.5	14.1	-7.1	-0.7%	0.658
Cc1c(Cl)cccc1NC(=S)NCCc1ccc(F)cc1	4.3	0.1	5.8	7.9	-2.8	.	0.623
O=C(N/N=C\c1ccc(Cl)cc1)c1sccc1-n1cccc1	.	0.7	-5.4	1.3	-1.7	?	.
Nc1ccccc1C(=O)NCc1ccccc1	.	-0.2	3.2	1.7	-0.3	-0.7%	0.684
Cc1ccccc1CN1CCC(n2nccc2NC(=O)c2ccc3c(c2)OCO3)CC1	1.4	0.4	2.5	-7.1	0.5	.	0.709
CCN1CCc2c(sc(NC(=O)C3COc4ccccc4O3)c2C(N)=O)C1 (stereo unspecified)	1.1	-0.8	1.4	0.1	4.2	.	0.641
CC(C)CCn1c(NCCc2ccccc2)nc2c1c(=O)n(C)c(=O)n2C	6.5	-0.2	1.1	-6.4	3.0	.	0.716
COc1cc(/C=N/NC(=O)c2cccc([N+](=O)[O-])c2)ccc1O	.	-0.2	4.2	4.6	-3.7	-0.5%	.
COC(=O)C1=C(C)N(Cc2ccc(C)cc2)C(=O)/C1=C\c1cc(OC)c(OC)c(OC)c1	.	0.2	-3.9	16.1	-0.9	.	.
CCCCn1nc2cc(C(=O)N[C@H](C)C3CCCCC3)ccc2c1OCC	-15.4	-0.7	6.8	6.2	-0.2	3.3%	.
COC(C[C@H](O)C[C@H](O)COCc1ccccc1)OC	-0.2	.	0.2	-5.2	.	.	.
CCN1CCN(c2ccc(N3CCN(S(=O)(=O)c4cc([N+](=O)[O-])ccc4C)CC3)nn2)CC1	0.7	-0.5	1.9	8.5	5.4	-6.1%	0.694
CSc1ccc(CCNC(=O)CN2C(=O)c3cccnc3Oc3ccc(C)cc32)cc1	2.0	0.4	-1.2	1.4	0.7	.	0.665
O=C(O)c1ccc(S(=O)(=O)c2ccc3c(c2)C(=O)N(NC(=O)c2ccc(O)cc2)C3=O)cc1	-0.7	0.2	2.3	3.6	-2.7	13.2%	0.691
Cc1cccc(N(C(=O)CCC(=O)Nc2cccnc2)C(C(=O)NC2CCCC2)c2ccncc2)c1 (stereo unspecified)	0.3	-0.2	0.9	-19.9	1.6	2.9%	0.697
CC(C)(C)c1cc(C(=O)NCc2cccnc2)ccn1	0.9	0.2	-2.8	9.2	2.1	?	0.648
O=C(CCNC(=O)c1ccco1)NCc1ccccc1	3.9	2.7	-0.2	-7.2	-5.4	4.3%	0.673
Nc1nc(SCC(=O)Nc2ccc(Cl)cc2)[nH]c(=O)c1-c1ccccc1	-5.9	0.4	2.1	-0.8	-0.2	6.5%	0.688
COc1ccccc1NS(=O)(=O)c1cccc(C(=O)N/N=C/c2ccc(N3CCOCC3)cc2)c1	.	-0.6	0.8	5.0	-1.4	.	.
CN(c1ccccc1C(=O)Nc1ccc2c(c1)OCO2)S(C)(=O)=O	-0.1	0.0	-1.5	0.0	5.0	28.1%	0.719
CC(=O)c1c(N)[nH]c(-c2ccccc2)nc1=S	1.1	-0.3	0.0	3.3	0.4	4.8%	0.697
CCc1nnc(NS(=O)(=O)c2ccc(NC(=O)c3ccccc3C)cc2)s1	6.0	1.0	1.9	6.1	3.3	.	0.694
C=CCn1c(CCNC(=O)c2cccs2)nnc1SCC(=O)Nc1cccc(F)c1	1.1	1.4	0.1	-14.5	-3.5	2.8%	0.635
S=C(NCc1ccccc1)Nc1cccc(Cl)c1	1.1	-1.2	-3.4	-0.8	-1.1	-4.6%	0.571
O=C(CSc1nc(=O)n(CCCN2CCOCC2)c2c1CCCC2)Nc1ccc(F)c(F)c1	6.3	-0.6	1.1	-5.2	-3.2	-2.1%	0.662
O=C(c1cncc(Br)c1)N1CCN(c2ccc([N+](=O)[O-])cc2)CC1	14.4	0.1	1.3	-0.6	1.4	4.5%	0.706
O=C(CCCl)N1CCN(c2nc(-c3ccccc3)cs2)CC1	0.8	0.2	-1.8	0.1	-0.1	.	0.636
COc1ccc(/C=C(/NC(=O)c2ccc(OC)c(OC)c2)C(=O)NCCc2c[nH]c3ccccc23)cc1	2.9	-0.9	0.8	-2.5	0.2	1.3%	0.671
CC(=C/c1ccccc1)/C=N/NC(=O)CSc1nc(C)cc(C)n1	.	0.3	5.3	-4.8	1.7	.	.
O=C(O)c1ccc(NS(=O)(=O)c2ccc(Cl)c(C(=O)Nc3ccccc3[N+](=O)[O-])c2)cc1	1.3	0.2	-0.1	-0.9	-1.2	-0.2%	0.625
CNC(=O)COC(=O)c1cc2c(C)nn(-c3ccc(F)cc3)c2s1	-26.0	-0.3	0.3	-14.1	1.1	22.1%	0.692
CCNC(=O)C(=O)Nc1ccc([N+](=O)[O-])cc1	2.9	-0.1	-6.5	7.4	9.7	-5.2%	0.683
COc1cc(CNC(C)(C)CO)cc(Br)c1OCc1ccc(Cl)cc1	8.5	1.9	-1.6	17.7	2.0	4.6%	0.697
Cc1cc(C)cc(CC2CC(=O)N(c3nc(C)cc(C)n3)C2=O)c1 (stereo unspecified)	4.3	-2.1	0.8	5.5	-6.3	-2.8%	0.704
O=C(CN1C(=O)NC2(CCCCC2)C1=O)Nc1ccc(N2CCCCC2)cc1	-0.1	-0.8	-1.7	2.6	-1.9	-3.5%	0.633
O=C1CSC(c2cccc([N+](=O)[O-])c2)N1Cc1ccccc1 (stereo unspecified)	3.5	-0.3	-0.3	-4.4	-7.2	.	0.711
COc1cc(NC(=O)C/C(C)=N/NC(=O)C(OC)c2ccccc2)c(OC)cc1Cl (stereo unspecified)	.	0.6	3.0	-3.0	-0.4	0.7%	.
CCOC(=O)C1CCN(c2ncnc3c2cnn3-c2ccc(Cl)cc2)CC1	3.2	0.6	2.0	9.2	.	-26.4%	0.682
O=C(CSc1nc2ccccc2c(=O)n1CCCO)NC1CC1	1.1	0.7	2.2	4.4	+	-8.5%	0.691
CNc1ccn(C2CCCO2)c(=O)n1 (stereo unspecified)	1.6	0.1	0.1	-6.3	-2.7	9.4%	0.692
CC1CCN(C(=O)C(C)Sc2nc(-c3ccccc3)cc(C(F)(F)F)n2)CC1 (stereo unspecified)	1.0	0.3	-2.7	14.6	4.2	18.8%	0.7
COCCOCC(O)CN1CCN(c2ccc(C)cc2)CC1 (stereo unspecified)	-0.8	-0.9	0.3	-10.4	0.2	5.3%	0.739
O=C(OC1CCc2ccccc2C1=O)c1ccccc1O (stereo unspecified)	2.4	-9.9	-3.0	-1.5	6.1	0.1%	0.737
CCC(CC)C(=O)Nc1c(C)n(C)n(-c2ccccc2)c1=O	0.1	0.4	2.7	-3.2	-2.0	-0.3%	0.688
Cc1ccc(NC(=S)N/N=C/c2ccc(OCCC(C)C)cc2)c(C)c1	.	0.8	2.8	1.7	9.9	-1.2%	.
COc1ccc(NC(=O)NCCN2C(=O)C3C4C=CC(C4)C3C2=O)cc1 (stereo unspecified)	1.5	-0.1	1.8	3.2	-1.8	0.7%	0.709
Cc1noc(C)c1COc1ccc(C(=O)OCC(=O)NC2CCCCC2C)cc1 (stereo unspecified)	4.3	0.1	-1.3	8.2	0.4	1.8%	0.668
CC(=O)Nc1cccc(C(=O)OC(C(=O)c2ccc(C)cc2)c2ccccc2)c1 (stereo unspecified)	1.7	0.4	2.6	1.7	0.0	-2.8%	0.7
Cc1onc(-c2ccccc2)c1-c1ccnc(N)n1	2.4	0.2	0.5	-2.2	-2.3	-5.2%	0.651
The results go on.
SMILES	UCH37 DUB inh	Bfl-1 A1 inh	HNF4A DNA FP	Beta2AR agonist	LANA-H2B inh	Vif TR-FRET	E coli growth
CCCCNC(=O)COC(=O)c1c2c(nc3ccccc13)/C(=C/c1cccs1)CC2	-75.4	-3.8	21.7	10.8	-4.0	24.2%	0.724
Cc1nnc(NC(=O)c2ccc(S(=O)(=O)N(C)Cc3ccccc3)cc2)o1	0.2	-0.6	2.4	-2.5	0.1	65.6%	0.742
CCCc1c(O)nc(SC2CC(=O)N(c3cc(OC)ccc3OC)C2=O)[nH]c1=O (stereo unspecified)	3.5	-0.3	1.4	0.7	0.4	4.8%	0.681
O=C(NCCCn1ccnc1)c1cn(-c2ccccc2)nc1-c1ccccc1	3.7	0.4	1.8	-6.8	4.5	?	0.685
COc1cc(C(=O)Nc2cccc(-c3nc4cc(C)ccc4o3)c2)cc(OC)c1OC	-5.6	0.2	3.0	16.7	-2.4	.	0.701
Cc1ccccc1Nc1nc(N)nc(CN2CCN(c3ccccn3)CC2)n1	4.7	0.5	1.2	-20.1	2.3	-0.7%	0.782
Cn1cnnc1Sc1ccc(C(=O)OCC(=O)Nc2ccccc2)cc1[N+](=O)[O-]	4.7	0.1	2.6	-4.9	1.3	?	0.712
O=C(N/N=C/c1cccc(F)c1)c1csc2c1CCCC2	.	0.5	3.3	-1.4	-1.4	4.2%	.
Cc1cc(N/C=C/C(=O)c2ccc(Br)cc2)no1	1.7	-1.6	-3.4	-5.3	-1.0	6.2%	0.646
Cc1cccc(C)c1NC(=O)c1cccc2c1C(=O)N(C1CCCCC1)C2	1.4	-1.0	4.3	-6.9	3.2	.	0.682
Cc1ccc(C)c(N2N=C(C(=O)Nc3ccc(N4CCOCC4)cc3)CCC2=O)c1	4.0	.	-1.7	2.1	.	1.6%	0.705
COc1ccc(/C=N/NC(=O)CN2CCS(=O)(=O)CC2)cc1	.	0.6	6.8	-1.6	-3.8	25.8%	.
Cc1ccccc1OCc1ccc(C(=O)N2CC(C)OC(C)C2)o1 (stereo unspecified)	3.2	-0.2	3.3	11.0	0.9	.	0.682
